Ecoli growth = inhibitors of Escherichia coli growth; OD600 absorbance (test concentration not listed); OD600, 23 h; hits give low values; 330,000 compounds, 0.21% hits;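 active = OD600 absorbance below the run mean of sample wells minus 3.6 SD, in any replicate, cut at about 0.56 in these data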;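 also: stock transfer was 300 nL into about 60 µL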
HNF4A DNA FP = change in binding of human HNF4 alpha to DNA. activity change, % at 10 µM. HNF4a-FITC DNA binding, fluorescence polarization, 1 h. P41235. 360,000 compounds, 0.3% hits; in the data active = activity change above about 30%, passing the limit was not always enough;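 also: controls were the assay level and a saturating level of protein; the project sought stronger binding though the title names inhibitors; some compounds called inactive have numbers as strong as hits; positive values seem to mean higher polarization but the record does not say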
Target sequence (P41235 whole entry, looked up): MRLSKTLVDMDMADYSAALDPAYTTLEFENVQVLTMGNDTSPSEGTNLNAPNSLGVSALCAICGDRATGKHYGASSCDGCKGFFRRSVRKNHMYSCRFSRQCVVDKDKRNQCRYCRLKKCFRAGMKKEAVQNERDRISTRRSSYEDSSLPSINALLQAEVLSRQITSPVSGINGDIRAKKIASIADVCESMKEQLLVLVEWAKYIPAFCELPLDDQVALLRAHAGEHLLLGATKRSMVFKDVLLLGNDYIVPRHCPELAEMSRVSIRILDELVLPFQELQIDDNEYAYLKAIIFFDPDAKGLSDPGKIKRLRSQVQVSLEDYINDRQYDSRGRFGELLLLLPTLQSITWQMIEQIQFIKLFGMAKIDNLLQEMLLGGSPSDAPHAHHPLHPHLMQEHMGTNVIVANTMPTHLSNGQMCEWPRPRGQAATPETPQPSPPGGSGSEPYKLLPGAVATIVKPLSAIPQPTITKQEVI
UCH37 DUB inh = blocks the human deubiquitinase UCH37; Q9Y5K5; AID 588478; 330,000 compounds, 0.33% hits; purified proteasome/UCH37, Ub-AMC cleavage fluorescence; inhibition, % (no concentration beside the values);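 active = mean of two replicates above 20%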;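 also: 0% = compound-free wells with enzyme and 100% = wells lacking proteasome; stock transfer was 100 nL into about 20 µL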
Target sequence (Q9Y5K5 whole entry, looked up): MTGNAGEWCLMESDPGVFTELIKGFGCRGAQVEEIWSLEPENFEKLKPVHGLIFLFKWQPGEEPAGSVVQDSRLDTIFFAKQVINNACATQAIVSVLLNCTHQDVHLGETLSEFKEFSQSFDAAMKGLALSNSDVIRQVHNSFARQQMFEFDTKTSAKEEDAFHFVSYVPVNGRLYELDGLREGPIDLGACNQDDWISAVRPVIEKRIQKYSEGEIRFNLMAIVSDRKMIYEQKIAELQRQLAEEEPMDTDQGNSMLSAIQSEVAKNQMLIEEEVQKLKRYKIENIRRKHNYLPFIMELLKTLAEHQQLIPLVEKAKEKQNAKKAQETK
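Test system – human UCH37 enzyme supplied as purified proteasome complex · Incubation – 30 min preincubation with enzyme, 25 min cleavage at room temperature · Detection – AMC fluorescence from Ub-AMC cleavage, excitation 355 nm, emission 460 nm · Benchmarks – no-proteasome wells (full inhibition) and compound-free wells (no inhibition)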
RanGTP-Impb inh = inhibitors of RanGTP-importin-beta interaction, primary screen, biochemical, FRET, CFP-Ran, YFP-importin-beta, homogeneous; cell-free CFP-Ran/YFP-importin-beta FRET ratio; inhibition, % (test concentration not listed); 300,000 compounds, 1.1% hits;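 active = most replicates above 15%; inconclusive = exactly half above 15%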;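 also: 0% = DMSO wells and 100% = Ran loaded with GDP instead of GTP; wells of about 40 µL received 100 nL stock; the first replicate is given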
FGF22 binding = shifts melting point of recombinant human FGF22. 340,000 compounds, 1.5% hits. Q9HCT0. recombinant FGF22 thermal shift, SYPRO orange fluorescence; percent of sucrose octasulfate shift, DMSO zero. calls only at 9.99 µM;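 active = melting point raised past a set limit in the mean and every replicate; inconclusive = no clear call; three in four hits are not shown here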
Target sequence (Q9HCT0 whole entry, looked up): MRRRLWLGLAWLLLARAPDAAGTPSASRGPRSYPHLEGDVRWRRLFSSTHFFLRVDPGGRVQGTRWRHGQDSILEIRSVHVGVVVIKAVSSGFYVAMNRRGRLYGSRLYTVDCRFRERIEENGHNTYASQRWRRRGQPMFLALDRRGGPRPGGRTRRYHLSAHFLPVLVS
MLL AF4-AF9 inh = inhibitors of human MLL-AF4/AF9 interaction; P42568; 350,000 compounds, 0.47% hits; inhibition, % at 10 µM; AlphaScreen, biotin-AF4 peptide binding to FLAG-AF9;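 active = every replicate reaching a set inhibition limit, whatever the replicate mean, cut at about 25% in these data; inconclusive = mean inhibition reaches that limit but some replicates miss it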;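 also: 0% = plate neutral control median and 100% = total signal loss; the record names both 10 and 1 µM as test concentration; the first replicate is given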
Vif A3G = HIV-1 Vif–A3G interaction blockers – biochemical, TR-FRET, GST-Vif 1-94, biotin-A3G peptide, dose response retest, primary screen (AID 1117319); TR-FRET GST-Vif / biotin-A3G peptide binding; higher % means a stronger effect; test concentration not given here; strong numbers were not always called active; one-dose inhibition, %; IC50 in µM for titrated hits; 260,000 compounds, 0.57% hits;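 active = above the screen mean plus three standard deviations and confirmed in dose response; inconclusive = results disagree or hit not tested in dose response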;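 also: Vif residues 1-94 fused to GST binding biotinylated APOBEC3G peptide 110-148; 0% = full assay without inhibitor and 100% = GST in place of GST-Vif; retest series ran down from 100 µM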
The depositor's hits bear a star; i = inactive; ? = inconclusive; nt = not tested or not shown; & = joins results of further samples. These rows are one share of the data; count on the stated rates, not on these rows.

Start of the data: the first 3 compounds, ahead of the listing:
SMILES | Ecoli growth | HNF4A DNA FP | UCH37 DUB inh | RanGTP-Impb inh | FGF22 binding | MLL AF4-AF9 inh | Vif A3G
COc1cc(C(C(=O)NC(C)(C)C)N(Cc2ccc3c(c2)OCO3)C(=O)c2cnccn2)cc(OC)c1OC (centres undefined) | 0.659 | 0.6 | 6.1 | 0.2 | i | -52.1 | 5.7%
C/C(=N\Nc1nc(C)cc(C)n1)c1ccc(C)o1 | nt | -1.7 | nt | 0.7 | i | 1.2 | 1.0%
O=C(Nc1cc(S(=O)(=O)N2CCOCC2)ccc1N1CCCC1)c1ccccc1F | nt | 0.9 | nt | nt | nt | -4.7 | -3.1%

Main list, from the first entry:
SMILES | Ecoli growth | HNF4A DNA FP | UCH37 DUB inh | RanGTP-Impb inh | FGF22 binding | MLL AF4-AF9 inh | Vif A3G
COc1cc(C(C(=O)NC(C)(C)C)N(Cc2ccc3c(c2)OCO3)C(=O)c2cnccn2)cc(OC)c1OC (centres undefined) | 0.659 | 0.6 | 6.1 | 0.2 | i | -52.1 | 5.7%
C/C(=N\Nc1nc(C)cc(C)n1)c1ccc(C)o1 | nt | -1.7 | nt | 0.7 | i | 1.2 | 1.0%
O=C(Nc1cc(S(=O)(=O)N2CCOCC2)ccc1N1CCCC1)c1ccccc1F | nt | 0.9 | nt | nt | nt | -4.7 | -3.1%
C=CC[C@H](CC(=O)NCCO)C(=O)N[C@H](COC(=O)[C@@H](CC=C)CC(=O)OC(C)(C)C)Cc1ccccc1 | nt | -1.1 | 0.8 | nt | i | -7.9 | nt
N#C/C(=N\Nc1ccccc1)C(=N)N1CCOCC1 | nt | 0.5 | nt | -3.0 | i | 4.5 | -1.9%
CN(CC(=O)Nc1ncn[nH]1)S(=O)(=O)c1cc(Cl)ccc1Cl | 0.712 | -1.3 | 1.5 | -3.0 | i | -1.6 | -0.9%
CN(C)c1cccc(C(=O)OCc2cc(=O)oc3cc(O)ccc23)c1 | 0.67 | -18.6 | -68.1 | ? | nt | nt | 22.2%
CCOc1ccccc1NC(=O)c1nnn(CC(=O)Nc2ccc3c(c2)OCO3)c1N | 0.68 | 5.3 | 1.5 | 2.7 | i | -0.1 | nt
Cc1cc(/C=C2/NC(=O)N(Cc3ccccc3F)C2=O)c(C)n1-c1ccccn1 | nt | 0.9 | nt | 0.4 | nt | nt | 6.2%
O=C(c1cccc2c1-c1ccccc1C2)N1CCCCC1 | 0.658 | 0.5 | 0.3 | 2.7 | i | nt | nt
CCn1c(SCC(=O)c2c[nH]c3ccccc23)nc2cc(S(=O)(=O)N3CCOCC3)ccc21 | 0.715 | 6.2 | 6.2 | 2.8 | nt | nt | nt
CCCOc1ccc(F)cc1-c1cc(C(=O)NCCOC)[nH]n1 | nt | 0.3 | nt | nt | i | -0.5 | nt
CCn1c2ccc(F)cc2c2nnc(SCCN3CCCCC3)nc21 | 0.68 | -0.7 | 8.5 | -0.3 | i | 1.4 | 1.9%
CCN(CC(=O)NCc1cccs1)C(=O)/C=C/c1cc(OC)ccc1OC | 0.706 | 0.8 | -411.9 | nt | i | 3.6 | nt
Cc1onc(C(=O)Nc2c(C)n(C)n(-c3ccccc3)c2=O)c1[N+](=O)[O-] | 0.682 | 2.9 | 5.3 | 0.8 | i | -15.2 | ?
CN(CC(=O)NCCc1ccc(S(N)(=O)=O)cc1)S(=O)(=O)/C=C/c1ccccc1 | 0.718 | 0.2 | 3.5 | 0.8 | i | 3.6 | nt
CC(=O)c1c(C)[nH]c(C(=O)N2CCc3ccccc32)c1C | 0.722 | -0.4 | 3.5 | -1.8 | nt | nt | -1.4%
COc1ccc(-c2noc(CN3CCN(C(=O)c4cccs4)CC3)n2)c(OC)c1OC | 0.653 | -1.9 | -0.2 | -3.2 | i | -0.4 | nt
CC(C)CCCN1C(N(C)C)=NC[C@@H]1Cc1ccccc1 | nt | -1.2 | 1.4 | nt | i | 1.0 | nt
C=CS(=O)(=O)c1c2cc(OC)ccc2nc2ccc(OC)cc12 | nt | -11.8 | nt | nt | i | -2.2 | -1.1%
COC(=O)c1c(-c2ccc(F)cc2)csc1NC(=O)c1ccco1 | 0.747 | -0.4 | -20.5 | -3.2 | nt | nt | -23.7%
O=C(CCCN1C(=O)/C(=C/c2ccccc2Cl)SC1=S)NNC(=O)c1ccccc1 | 0.712 | 2.6 | 4.2 | 4.5 | i | 1.1 | -6.3%
O=C(COC(=O)c1ccc2c(c1)OCO2)NCc1ccc(Cl)cc1 | 0.765 | -1.3 | 6.7 | 2.3 | nt | nt | -6.2%
CC(C)CC1C(=O)N(Cc2cn(CCC3OCCCO3)nn2)CCS(=O)(=O)N1Cc1ccc(-c2cccc(CO)c2)cc1 (centres undefined) | nt | -4.4 | nt | nt | i | 1.7 | 4.5%
CC(C)N(C(=O)Cn1c(Cl)nc2ccccc21)C(C)C | 0.706 | 0.9 | 0.4 | 5.5 | i | -2.0 | 17.8%
Cc1ccccc1NS(=O)(=O)c1cc(C(=O)NCCC2=CCCCC2)ccc1C | 0.69 | 3.2 | 39.8* | 3.4 | i | 5.5 | 1.5%
CC(C)c1ccc(-c2cc(C(=O)NN3CCN(C)CC3)c3ccccc3n2)cc1 | 0.652 | 0.0 | -14.1 | -1.0 | nt | nt | nt
Oc1ccccc1/C=N/NC(=S)NC1CC2C=CC1C2 (centres undefined) | nt | 0.7 | nt | 0.9 | i | nt | 13.3%
COc1ccc(O)c(-c2[nH]ncc2C(=O)c2ccccc2)c1 | 0.674 | 0.5 | 0.2 | 3.3 | nt | nt | 4.8%
COCC(=O)Oc1c(Sc2ccccc2[N+](=O)[O-])c(C)nn1C(C)(C)C | 0.708 | 1.8 | 3.4 | -0.2 | i | 2.1 | 3.6%
CCCCN(C(=O)CSc1nnc(-c2ccccc2)n1C)c1c(N)n(Cc2ccccc2)c(=O)[nH]c1=O | 0.673 | 0.8 | 2.8 | -2.2 | nt | nt | nt
COc1ccc(C(=O)N2CCCC(C)(C(=O)NS(=O)(=O)C3CC3)C2)cc1 (centres undefined) | nt | 3.9 | nt | nt | i | -0.2 | nt
COCCC(=O)N1CCC(Oc2ccc(C(=O)NCCSC)cc2)CC1 | 0.697 | -2.5 | 0.6 | 3.4 | i | 1.9 | nt
NCCNc1ccc([N+](=O)[O-])cc1 | 0.652 | 4.9 | 9.4 | 6.5 | i | 7.8 | 0.1%
CCc1cccc2c(C(=O)CN3C(=O)C(=O)N(C4CCCC4)C3=O)c[nH]c12 | 0.683 | -2.7 | 2.1 | nt | i | 5.6 | nt
Cn1c(SCC(=O)NC(=O)Nc2ccccc2)nnc1-c1ccncc1 | 0.7 | 1.5 | 3.9 | -0.5 | i | 2.1 | -2.3%
Nc1ccc(-c2nc3ncccc3o2)c(Cl)c1 | 0.684 | 2.0 | -78.6 | 4.1 | i | -2.6 | 1.6%
Cc1ccc(-n2c([O-])nc(-[n+]3ccccc3)c2C=O)cc1 | 0.667 | -2.3 | 3.2 | -9.4 | nt | nt | -0.5%
Cc1cccc(CNc2ncnc3ccc(-c4cccnc4)cc23)c1 | 0.651 | 5.4 | -1.7 | nt | i | 2.1 | nt
C/C(=N\N1CCN(c2ccccc2)CC1)c1ccccc1O | nt | 0.8 | nt | -0.4 | i | 2.2 | -3.1%

Some of the entries above in another layout:
molecule	Ecoli growth	HNF4A DNA FP	UCH37 DUB inh	RanGTP-Impb inh	FGF22 binding	MLL AF4-AF9 inh	Vif A3G
Cc1ccc(-n2c([O-])nc(-[n+]3ccccc3)c2C=O)cc1	0.667	-2.3	3.2	-9.4	nt	nt	-0.5%
Cc1cccc(CNc2ncnc3ccc(-c4cccnc4)cc23)c1	0.651	5.4	-1.7	nt	i	2.1	nt

Next section.
SMILES | Ecoli growth | HNF4A DNA FP | UCH37 DUB inh | RanGTP-Impb inh | FGF22 binding | MLL AF4-AF9 inh | Vif A3G
COc1ccc(C2=NOC(C(=O)NCc3ccco3)C2)cc1OC (centres undefined) | 0.718 | -1.8 | 4.4 | 6.6 | nt | nt | -3.7%
CCOC(=O)c1cc(S(=O)(=O)NCCc2ccc(OC)c(OC)c2)cn1C | 0.651 | 0.1 | 1.4 | -1.8 | i | -2.8 | nt
CC(=O)Nc1ccc(S(=O)(=O)N2CCNC(=O)C2)cc1 | 0.679 | -24.1 | -0.2 | nt | i | -1.4 | -0.4%
Cc1ccc([C@H]2C[C@@H](n3cc(C4CC4)nn3)[C@H](O)CN2C(=O)C2CCCCC2)cc1 | nt | -3.1 | nt | nt | i | 0.5 | nt
Cc1nn(-c2ccccc2)c(C)c1/C=N/NC(=O)c1ccccc1NS(=O)(=O)c1cccs1 | nt | -5.5 | nt | -0.3 | nt | nt | 10.7%
Cc1cccc(NS(=O)(=O)c2ccc(C3CCCCC3)cc2)n1 | 0.702 | -0.9 | -26.9 | 4.5 | nt | nt | ?
CCCCNC(=O)C[C@@H]1C[C@@]2(C(=O)OC)CCCCC=C2N(Cc2ccc(Cl)cc2Cl)C1=O | nt | 1.1 | nt | nt | i | -0.2 | nt
Nc1nc2c3ccccc3nc(Cc3ccccc3)n2n1 | 0.707 | -5.0 | 0.4 | 2.4 | nt | nt | -0.3%
COc1ccc(C(=O)Nc2ccccc2C(=O)N2CCCCC2C)cc1 (centres undefined) | 0.686 | 0.6 | 1.4 | 3.0 | i | -1.3 | -1.1%
CCN1CCN(C(=S)NC(CC(=O)c2ccccc2)c2ccccc2)CC1 (centres undefined) | 0.705 | -1.3 | 2.9 | -2.6 | i | nt | -10.9%
COc1cc(/C=C2/SC(=S)N(c3c(C)n(C)n(-c4ccccc4)c3=O)C2=O)ccc1O | 0.731 | 24.6 | 11.4 | 0.3 | nt | 2.3 | nt
CN1CCN(C(=O)C[C@@H]2CC[C@@H]3[C@H](COC[C@@H](O)CN3Cc3cccc(Cl)c3)O2)CC1 | nt | -7.5 | nt | nt | i | -2.0&-1.6 | nt
CC(=O)NCCc1nc2ccccc2n1Cc1ccccc1 | 0.756 | 3.1 | 4.2 | 4.2 | i | -6.5 | 4.9%
CC(C1SC(=S)NC1=O)C1SC(=S)NC1=O (centres undefined) | nt | 3.8 | nt | nt | i | -3.4 | 14.9%
Cc1ccc(C2C(C#N)=C(N)N(c3cccnc3)C3=C2C(=O)CCC3)s1 (centres undefined) | 0.672 | 0.1 | -0.2 | 5.9 | i | 1.7 | nt
O=C(Cc1ccccc1)NCC(=O)OCC(=O)c1cccc([N+](=O)[O-])c1 | 0.724 | -1.3 | 4.6 | 0.4 | nt | nt | 25.7%
CCOc1cccc(C(=O)NC2CCCCC2)c1 | 0.659 | 0.2 | 3.4 | -1.1 | i | 2.4 | 14.6%
CN1CCN(C(=O)C2=C[C@@H](c3ccc(C(F)(F)F)cc3)C[C@@H](OCc3ccc(CO)cc3)O2)CC1 | nt | -2.3 | 1.9 | -2.4 | i | 0.4&-1.1 | ?
CCOc1ccc2c(CC)cc(=O)oc2c1OCC | 0.709 | 1.8 | -33.3 | -4.5 | i | 1.5 | -5.1%
C[C@@H]1CN([C@@H](C)CO)C(=O)CCCn2nncc2CO[C@@H]1CN(C)C(=O)Nc1ccnc(N2CCOCC2)c1 | nt | -2.6 | nt | nt | i | 0.7&-1.8 | -6.8%
CC(C)(C)NS(=O)(=O)c1cc2c3c(c1)CCN3C(=O)CC2 | 0.723 | -1.4 | 3.1 | 7.6 | i | -2.7 | nt
COc1ccc(S(=O)(=O)N2CCCC2=O)cc1N(C)S(C)(=O)=O | 0.673 | 0.9 | 1.4 | 2.9 | i | -3.1 | nt
CC(CN1CCCC(C(N)=O)C1)c1ccccc1 (centres undefined) | 0.681 | -2.2 | 2.6 | 0.4 | nt | nt | 0.8%

Screening data as filed in PubChem.
